Bioassay records: PubChem, several laboratories
PrP 5UTR inh – inhibition of PrP 5' UTR reporter expression. 340,000 compounds, 0.35% hits. inhibition, % (no concentration beside the values). AID 488862. cell-based PrP 5' UTR mRNA reporter, plate reader;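 active = every replicate at 50% or more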;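 note: 0 = median of the neutral control wells; tested in H4 reporter cells; numbers are from one replicate; inactives centre near -14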
RN4220 kill – kills Staphylococcus aureus RN4220. S. aureus RN4220 growth, OD600, 16 h. inhibition, % (no concentration beside the values). 330,000 compounds, 0.33% hits. AID 1259311;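 active = z-score of -3 or lower and OD600 up to 0.18 on both plates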;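 note: plate controls were untreated cells for no effect and reference antibiotic for full effect; stock transfer was 100 nL into about 80 µL; one replicate is shown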
BJeLR viability – BJeLR cell viability loss; inhibition, % (no concentration beside the values); 300,000 compounds, 0.17% hits; BJeLR (HRASV12) viability, CellTiter-Glo ATP luminescence, 48 h; reference of the scale not given here; AID 1554;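 active = replicate mean above 50%; inconclusive = above 50% but judged a plate artefact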;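 note: 50 nL library stock added to about 25 µL; numbers are from one replicate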
Autofluor counter – compound fluorescence in toxin protease inhibitor counterscreen; compound autofluorescence counterscreen, microsphere flow cytometry; active compounds read high; fluorescence intensity (concentration not given with the values); 360,000 compounds, 3.1% hits;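 active = at least 3 SD above the mean of all compounds, about 16000 in these data; inconclusive = too few beads counted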;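 note: 100 nL of 1 mM stock went into each well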
ugtP null kill – growth inhibition of S. aureus ugtP deletion strain; S. aureus RN4220 ugtP deletion, OD600 growth, 16 h; some inactives read as strong as hits; growth inhibition, % (concentration not given with the values); 330,000 compounds, 0.54% hits;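 active = z-score under -3 and OD600 up to 0.15 on both plates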;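 note: plate controls were untreated wells for no effect and antibiotic for full effect; wells of about 80 µL received 100 nL stock; the first replicate is given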
Mtb hypoxia rep – inhibitors of hypoxia-regulated fluorescent reporter in Mycobacterium tuberculosis. M. tuberculosis hypoxia-regulated fluorescent reporter, fluorescence. fluorescence inhibition, % (no concentration beside the values). 300,000 compounds, 0.1% hits. AID 1159583;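 active = 35 to 45% if threefold the growth effect, above 45% if 1.5-fold the growth effect; inactive = the rest, general growth blockers included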;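 note: wells of about 50 µL received 100 nL stock; 0% = vehicle wells and 100% = reference inhibitor wells; whole bacteria with a GFP reporter of the hypoxia response; strong numbers were not always called active; many hits fall short of the cut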
Mtb hypoxia rep growth – recorded beside Mtb hypoxia rep, whose call it bears; growth inhibition, %; measured here: M. tuberculosis growth (absorbance);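 0% = vehicle and 100% = reference antibiotic; read after six days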
* marks the source's active call; other numbers are inactive results; ? = inconclusive; · = not tested or not shown; & = joins results of further samples.

SMILES	PrP 5UTR inh	RN4220 kill	BJeLR viability	Autofluor counter	ugtP null kill	Mtb hypoxia rep	Mtb hypoxia rep growth
CC(C)c1nnc(NC(=O)COc2ccccc2[N+](=O)[O-])s1	-56	10	-5	·	0	-5	-1
COCCN(CC(=O)Nc1cccc(C)c1C)C(=O)c1oc2ccccc2c1C	1	22	·	?	-1	8	14
CCO[C@H]1OC(C(=O)N2CCN(Cc3ccc4c(c3)OCO4)CC2)=C[C@@H](c2ccccc2)[C@@H]1CCCO	-14	·	-6	2969	·	·	·
CCCCn1nnnc1NCc1ccc(N2CCCC2)cc1	-5	-0.4	5	1645	3	·	·
CN(C)CCCN(C(=O)CCc1ccccc1)c1nc2ccc(Br)cc2s1	-16	41	7	4701	2	·	·
O=C(CN1C(=O)CCSc2ccccc21)Nc1ccc2c(c1)OCO2	-19	0.5	9	11589	-8	7	8
Cc1ccc(OCCn2cnc3c(N)ncnc32)cc1	-10	3.0	-9	4059	-3	7	4
O=C(Nc1ccccc1)c1cc([N+](=O)[O-])ccc1N1CCNCC1	-34	3.0	1	4516	1	6	0
CC1CCN(C(=O)Cn2nnc(-c3ccc(N)cc3)n2)CC1	-14	-2.9	-4	2848	6	-4	-21
O=C(NC1CCN(Cc2ccccc2)CC1)C1COc2ccccc2O1 (stereo not given)	-9	0.8	-1	4314	-2	·	·
O=C(CCN1C(=O)c2ccccc2C1=O)Oc1ccc2ccccc2c1	-14	0.0	-6	3481	1	13	0
Cc1nccn1-c1ccc(C(F)(F)F)cc1NC=O	-11	-2.8	-9	2863	-7	1	14
Cc1cc(Cl)ccc1OCc1nc(-c2ccc(O)cc2)n[nH]1	-21	-7.7	-5	7075	3	12	5
CN(C)c1ccc(C(CC(=O)c2ccccc2)C2CCCCC2=O)cc1 (stereo not given)	-15	2.3	-9	2247	3	2	-1
COc1cccc(C(=O)NCc2cccnc2)c1	-20	5.5	-5	10426	1	21	8

Part of the list above in order of count of non-hydrogen atoms, highest first.
SMILES	PrP 5UTR inh	RN4220 kill	BJeLR viability	Autofluor counter	ugtP null kill	Mtb hypoxia rep	Mtb hypoxia rep growth
CCO[C@H]1OC(C(=O)N2CCN(Cc3ccc4c(c3)OCO4)CC2)=C[C@@H](c2ccccc2)[C@@H]1CCCO	-14	·	-6	2969	·	·	·
COCCN(CC(=O)Nc1cccc(C)c1C)C(=O)c1oc2ccccc2c1C	1	22	·	?	-1	8	14
CN(C)CCCN(C(=O)CCc1ccccc1)c1nc2ccc(Br)cc2s1	-16	41	7	4701	2	·	·
CN(C)c1ccc(C(CC(=O)c2ccccc2)C2CCCCC2=O)cc1 (stereo not given)	-15	2.3	-9	2247	3	2	-1
O=C(CN1C(=O)CCSc2ccccc21)Nc1ccc2c(c1)OCO2	-19	0.5	9	11589	-8	7	8
O=C(Nc1ccccc1)c1cc([N+](=O)[O-])ccc1N1CCNCC1	-34	3.0	1	4516	1	6	0
CC(C)c1nnc(NC(=O)COc2ccccc2[N+](=O)[O-])s1	-56	10	-5	·	0	-5	-1
Cc1ccc(OCCn2cnc3c(N)ncnc32)cc1	-10	3.0	-9	4059	-3	7	4
Cc1nccn1-c1ccc(C(F)(F)F)cc1NC=O	-11	-2.8	-9	2863	-7	1	14
COc1cccc(C(=O)NCc2cccnc2)c1	-20	5.5	-5	10426	1	21	8

Continued:
SMILES	PrP 5UTR inh	RN4220 kill	BJeLR viability	Autofluor counter	ugtP null kill	Mtb hypoxia rep	Mtb hypoxia rep growth
Cc1c(C(=O)NCCc2ccc3c(c2)OCCO3)oc2ccccc12	-16	-3.0	6	8122	10	10	10
CCC(C)(C(=O)NC1CCCC1)N(C(=O)CC1NC(=O)NC1=O)c1ccc(C)cc1 (stereo not given)	-9	5.5	2	3553	-4	8	9
N#CC1(Cc2ccc([N+](=O)[O-])cc2)c2ccccc2C=CN1C(=O)c1ccccc1 (stereo not given)	4	6.0	2	2134	3	·	·
CCCCn1cnc2c1c(=O)n(C)c(=O)n2C	-21	4.2	-1	23846*	1	10	8
Cc1nc([N+](=O)[O-])c(N2CCN(C)CC2)n1Cc1ccccc1	-25	0.5	-1	2433	7	·	·
COCCNC(=O)CN(C(=O)CCC(=O)Nc1ccccn1)c1ccc(F)cc1	-15	-3.0	-7	4243	-5	·	·
CCOC(=O)C1CCCN(C(=O)c2cc(-c3ccncc3)nc3ccccc23)C1 (stereo not given)	-52	4.0	-2	·	5	3	4
COc1ccc2oc(N)nc2c1	-19	2.0	·	2892	-5	-7	0
O=C1CC(N2CCN(c3nc4ccccc4s3)CC2)C(=O)N1c1ccc(F)cc1 (stereo not given)	0	6.9	12	3148	3	8	10
COc1ccc(S(=O)(=O)N2CCN(C(=O)CN3C(=O)NC4(CCCC4)C3=O)CC2)cc1	-14	4.5	-1	5205	9	11	9
CCCCNCCCOc1ccc(C)cc1Br	-3	-1.0	0	2206	-4	10	4
O=c1oc2ccccc2n1Cc1ccccc1F	-21	2.4	0	3261	13	-6	-12
c1ccc2c(N3CCOCC3)c3c(nc2c1)CCC3	-11	5.8	3	3773	7	16	3
COc1ccc(OC2CCN(S(=O)(=O)c3cccc(F)c3)CC2)cc1	9	2.4	0	2857	18	-2	-11
OCCCNC(=S)Nc1ccc2nccnc2c1	-37	5.5	3	4262	9	11	7
COc1ccc(NCC(=O)Nc2ccc(Cl)cc2C)c(OC)c1	-22	1.0	-3	9524	-6	9	-11
O=C(CSC1=Nc2ccccc2C2=NC(CC(=O)NCc3ccco3)C(=O)N12)NCC1CCCO1 (stereo not given)	-15	3.6	-5	4184	-1	4	5
O=C(NCC(=O)N1CC=C(c2ccccc2)CC1)c1ccc(F)cc1	-37	2.2	·	3898	-5	21	13
Cc1ccc(S(=O)(=O)CC2CSc3nnc(C)c(=O)n32)cc1 (stereo not given)	-12	2.8	-8	8637	1	4	-2
Cc1ccc(NC(=O)c2c(-c3ccccc3)noc2C)nc1	-4	9.3	4	2368	-6	5	1
O=C(c1ccc(Cl)nc1)N1CCc2ccccc2C1	-20	7.1	-4	2861	10	16	15
CCCN(CC1CC1)C(=S)NC(=O)c1ccccc1Br	-13	8.7	·	3513	4	6	3
CCC[C@@H](CN1CCC[C@H]1CN1C(N)=NC[C@H]1C(C)C)N1C[C@@H](Cc2ccccc2)N(CCCC2CCCC2)C1=N	-2	100*	·	3583	101*	·	·
O=C(CNC(=O)c1ccc(Cl)cc1)OCN1C(=O)c2ccccc2C1=O	-26	4.7	·	2897	3	9	2
O=C(Cn1ncc(Cl)c(Cl)c1=O)N1CCN(S(=O)(=O)c2ccc3ccccc3c2)CC1	-20	7.4	·	2590	0	5	11
COc1ccc(OC(=O)C2CC(=O)N(c3ccc(C)cc3)C2)cc1 (stereo not given)	1	-1.0	-7	3486	-2	2	0
CCC(C)C(C(=O)N1CCNCC1)n1cc(CCCN=C(N)N)nn1 (stereo not given)	·	3.6	·	·	5	19	6
CCNC(=O)COC(=O)c1ccc(-c2nc3ccccc3s2)s1	43	1.5	13	3139	-2	4	13
CCOC(=O)C1(C)NC(c2cc(OC)c(OC)c(OC)c2)C2C(=O)N(CC)C(=O)C21 (stereo not given)	-21	2.6	-2	3814	1	14	0
CCn1cc(C=NNC(=O)c2cc3c(ccc4ccccc43)o2)c2ccccc21	·	-24	·	·	-17	12	9
S=C(c1ccccc1)N1CCCc2ccccc21	6	5.2	12	7728	-7	5	-2
O=C(NCc1cccc2[nH]ccc12)C1CCC(=O)N(CCc2ccccc2)C1 (stereo not given)	-9	0.2	3	5697	0	5	1
COCCNCCCOc1ccc(Br)cc1Cl	-9	-1.3	-11	2550	1	6	9
COc1cccc(CNC(=O)CNC(=S)N(Cc2ccccc2)Cc2ccccc2F)c1	-1	18	3	4452	17	11	6
O=C(Cc1c(Cl)cccc1Cl)Nc1cccc(S(=O)(=O)N2CCOCC2)c1	-20	10	-1	4001	9	13	7
COC(=O)c1cc2ccsc2n1Cc1nc(-c2cccc(Cl)c2)oc1C	8	2.5	0	5628	-14	-4	-4
CCNc1nc2c(c(=O)[nH]c(=O)n2C)n1CCCc1ccccc1	-18	2.3	-18	3889	3	8	-2
COC(=O)c1cn(-c2ccccc2)nc1-c1ccc(OC)cc1	-7	8.0	-4	2096	0	14	1
Cc1[nH]c(C(=O)N/N=C/c2ccc(N(C)C)cc2)c(C)c1C(=O)N/N=C/c1ccc(N(C)C)cc1	-35	·	3	3497	·	·	·
CC(CCC(=O)O)C1CCC2C3C(O)CC4CC(O)CC[C@]4(C)C3CC(O)[C@]12C (stereo not given in full)	·	2.8&8.5	·	·	2&-3	3&-1	4&4
COc1cccc(C(=O)NN=Cc2ccc(Oc3ccc([N+](=O)[O-])cn3)c(OC)c2)c1	·	-1.2	·	·	8	-5	-12
CC1(c2ccccc2Cl)NC(=O)N(CC(=O)N2CCN(S(=O)(=O)c3ccccc3)CC2)C1=O (stereo not given)	-10	-2.5	-2	5561	-6	2	-1
Cc1cccc(-n2c(C)cc(C=C3C(=O)c4ccccc4C3=O)c2C)c1	-50	3.4	-5	6839	3	-6	-6
S=C(c1ccc(OCc2ccccc2)cc1)N1CCCC1	-35	4.9	2	3049	5	2	6
C/C=C/C=NNc1nc(-c2ccc([N+](=O)[O-])cc2)cs1	·	6.3	·	·	3	12	4
C=CCc1ccc(OCCCOc2ccc(C)c(C)c2)c(OC)c1	-2	4.7	3	2332	64	·	·
Cc1[nH]c2ccc(C(=O)OC(C)C(=O)NC3(C#N)CCCCC3)cc2c1C (stereo not given)	-22	3.7	2	4918	2	10	0
CCCCC(=O)Nc1cccc(NC(=O)c2ccc(Br)o2)c1	-18	5.1	-2	16352*	15	1	0
Cc1cc(C(=O)CCl)c(C)n1-c1ccon1	-26	11	6	4127	8	23	21
COc1cc(CC(=O)OCc2cccc([N+](=O)[O-])c2)cc(OC)c1OC	-17	5.0	-6	4266	-6	-3	-5
CCOC(=O)C1=C(c2ccccc2)Nc2ncnn2C1c1cc(OC)cc(OC)c1OC (stereo not given)	-24	7.0	-1	9151	-10	1	8
Cc1ccc(C(=O)Nc2cccc(C(=O)O)c2)cc1S(=O)(=O)N1CCCCC1	-14	1.3	·	2279	0	·	·
CC(=NNS(=O)(=O)c1ccccc1)c1ccc(NC(=O)C(F)(F)F)cc1	·	7.7	·	·	17	15	2
CCN1CCCC1CNS(=O)(=O)c1cc(Br)cc2c1N(C(=O)C1CC1)CC2 (stereo not given)	-20	-2.8	-11	14527	1	8	-9
O=C(c1cc(-c2cccs2)nc2ccccc12)N1CCN(CCO)CC1	-14	2.5	·	·	5	5	2
CNC(=O)C(Sc1nc(C)nc2c1oc1ccccc12)C(C)=O (stereo not given)	1	3.1	-17	9843	-17	2	17
CC(=NNc1nc2ccccc2[nH]1)c1ccc(C)o1	·	4.1	·	·	2	8	-9
O=C1CN2NC(=S)N(c3ccccc3)C2=CN1c1ccc(Cl)cc1	-17	6.5	7	4524	12	17	6
CCOC(=O)C1CCN(/C=C2/C(=O)NC(=S)N(c3cccc(OC)c3)C2=O)CC1	-12	·	4	2571	·	·	·
COc1cc2c(cc1OC)C(c1cccc([N+](=O)[O-])c1)NC(=O)C2 (stereo not given)	3	0.8	3	3258	3	5	13
COc1ccc(O)c(/C=N/NC(=O)c2ccc(N3CCCC3=O)cc2)c1	-13	·	-6	5814	·	·	·
CCN(CC)S(=O)(=O)c1ccc2c(c1)c(=O)c(C(=O)NCc1cccs1)cn2C	-20	5.9	-21	11616	1	7	2

Part of the list above, set out differently.
Cc1cccc(-n2c(C)cc(C=C3C(=O)c4ccccc4C3=O)c2C)c1
  PrP 5UTR inh: -50
  RN4220 kill: 3.4
  BJeLR viability: -5
  Autofluor counter: 6839
  ugtP null kill: 3
  Mtb hypoxia rep: -6
  Mtb hypoxia rep growth: -6
Cc1ccc(NC(=O)c2c(-c3ccccc3)noc2C)nc1
  PrP 5UTR inh: -4
  RN4220 kill: 9.3
  BJeLR viability: 4
  Autofluor counter: 2368
  ugtP null kill: -6
  Mtb hypoxia rep: 5
  Mtb hypoxia rep growth: 1
